# Beta cell apopt = blocks beta cell apoptosis; actives 0.8% (n = 300,000); INS-1E cytokine-induced death, ATP luminescence, 48 h; percent of positive-control rescue, neutral wells zero; protection from apoptosis, % (test concentration not listed);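 active = all replicates at 75% or more, or half of them and the mean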;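 also: 0% = cytokine-treated negative control wells and 100% = positive control rescue; higher means more ATP so stronger rescue from cytokine killing; wells of about 40 µL received 100 nL stock; the first replicate is given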
# rRNA inh HTS = selective bacterial rRNA inhibition in E. coli. E. coli WT GFP vs humanized-ribosome RFP mutants, fluorescence, 24 h; active compounds read low; DMSO median 0, no signal -100. actives 1.6% (n = 350,000). GFP signal change (wild-type ribosome), % (test concentration not listed);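 active = significant combined selectivity score with lowered wild-type GFP, culture density cut under 30%, mutant RFP and density less affected; inactive = any of these conditions unmet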; also: one replicate is shown; some compounds called inactive have numbers as strong as hits
# T cruzi inh = blocks replication of Trypanosoma cruzi; actives 1.4% (n = 300,000); T. cruzi beta-gal in NIH3T3, luminescence, 90 h; inhibition, % (concentration not given with the values);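 active = mean inhibition across valid replicates above about 55%, limit read from the data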;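 also: signal also drops with host cell toxicity which is not excluded here; 0% = plate median of DMSO wells and 100% = zero luminescence signal; higher percent means less beta-gal luminescence so fewer parasites; stock transfer was 50 nL into about 50 µL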
# FGF22 binding = FGF22 (human) thermal shift binding | Q9HCT0 | AID 651658 | calls only at 9.99 µM | actives 1.5% (n = 340,000) | recombinant FGF22 thermal shift, SYPRO orange fluorescence; percent of sucrose octasulfate shift, DMSO zero;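 active = melting point raised past a set limit in the mean and every replicate; three in four hits are not shown here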
# Target sequence (Q9HCT0 whole entry, looked up): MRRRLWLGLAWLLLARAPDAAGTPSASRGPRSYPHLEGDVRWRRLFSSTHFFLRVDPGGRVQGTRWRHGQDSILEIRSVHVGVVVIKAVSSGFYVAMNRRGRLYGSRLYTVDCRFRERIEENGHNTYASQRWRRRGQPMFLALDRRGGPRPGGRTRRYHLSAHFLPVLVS
# Ecoli growth = inhibitors of Escherichia coli growth | OD600, 23 h; active compounds read low | OD600 absorbance (no concentration beside the values) | actives 0.21% (n = 330,000) | AID 1053175;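 active = OD600 absorbance below the run mean of sample wells minus 3.6 SD, in any replicate, cut at about 0.56 in these data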;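 also: stock transfer was 300 nL into about 60 µL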
# A1 inh = inhibitors of the anti-apoptotic protein A1, read as caspase activation; actives 0.066% (n = 330,000); caspase activation, % (concentration not given with the values); AID 2462; MEF A1-2A-BIM cells, Caspase-Glo 3/7 luminescence, 3 h; percent of clofoctol response, vehicle zero;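 active = over half of replicate activation scores above 10%, or exactly half above 10 with the replicate mean above 10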;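 also: wells of about 30 µL received 50 nL stock; many hits fall short of the cut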
# MLL AF4-AF9 inh = inhibitors of human MLL-AF4/AF9 interaction; P42568; AlphaScreen, biotin-AF4 peptide binding to FLAG-AF9; inhibition, % at 10 µM; actives 0.47% (n = 350,000); AID 651704;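 active = every replicate reaching a set inhibition limit, whatever the replicate mean, cut at about 25% in these data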;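 also: 0% = plate neutral control median and 100% = total signal loss; the record names both 10 and 1 µM as test concentration; the first replicate is given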
# Target sequence (P42568 whole entry, looked up): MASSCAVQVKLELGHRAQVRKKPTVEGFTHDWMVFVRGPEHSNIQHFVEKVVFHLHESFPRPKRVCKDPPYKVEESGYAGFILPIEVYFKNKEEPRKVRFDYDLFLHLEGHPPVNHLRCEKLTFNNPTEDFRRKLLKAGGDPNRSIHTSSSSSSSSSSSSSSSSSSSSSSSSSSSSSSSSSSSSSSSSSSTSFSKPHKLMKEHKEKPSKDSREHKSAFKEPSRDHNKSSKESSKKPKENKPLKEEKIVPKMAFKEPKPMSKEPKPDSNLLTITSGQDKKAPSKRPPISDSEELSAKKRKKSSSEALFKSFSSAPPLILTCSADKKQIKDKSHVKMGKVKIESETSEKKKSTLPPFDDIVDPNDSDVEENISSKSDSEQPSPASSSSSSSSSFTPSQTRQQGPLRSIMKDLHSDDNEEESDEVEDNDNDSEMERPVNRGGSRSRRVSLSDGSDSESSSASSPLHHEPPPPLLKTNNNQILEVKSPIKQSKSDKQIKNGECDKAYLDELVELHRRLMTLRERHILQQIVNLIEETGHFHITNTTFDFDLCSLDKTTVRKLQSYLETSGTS
# UCH37 inh = inhibitors of human deubiquitinating enzyme UCH37; Q9Y5K5; purified proteasome/UCH37, Ub-AMC cleavage fluorescence; inhibition, % (concentration not given with the values); actives 0.33% (n = 330,000); AID 588478;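 active = mean of two replicates above 20%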;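 also: 0% = compound-free wells with enzyme and 100% = wells lacking proteasome; stock transfer was 100 nL into about 20 µL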
# Target sequence (Q9Y5K5 whole entry, looked up): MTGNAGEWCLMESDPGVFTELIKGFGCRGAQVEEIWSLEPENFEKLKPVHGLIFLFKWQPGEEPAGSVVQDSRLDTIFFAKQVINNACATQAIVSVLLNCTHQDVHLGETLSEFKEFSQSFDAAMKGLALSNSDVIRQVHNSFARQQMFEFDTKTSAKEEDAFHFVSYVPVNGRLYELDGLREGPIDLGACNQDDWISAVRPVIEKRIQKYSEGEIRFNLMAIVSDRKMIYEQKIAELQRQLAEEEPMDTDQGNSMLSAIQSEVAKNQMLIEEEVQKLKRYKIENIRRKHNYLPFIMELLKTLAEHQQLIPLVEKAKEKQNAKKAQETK
#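 Schedule: 30 min plus 25 min, room temperature / Material: human UCH37 within purified proteasomes / Technique: AMC fluorescence intensity at 355/460 nm / Buffer or medium: pH 7.4 Tris-HCl (50 mM) with ovalbumin, ATP-MgCl2, DTT / Controls: wells without proteasome as full block, compound-free enzyme plus substrate as uninhibited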
# rRNA inh HTS OD600 = also measured in rRNA inh HTS; calls as there; OD600 change, %; measured here: OD600 growth;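 optical density of the mix in the first replicate; 0 = DMSO median and -100 = no signal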
# rRNA inh HTS RFP = also measured in rRNA inh HTS; calls as there; RFP signal change, %; measured here: RFP humanized mutant strains;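 first replicate; 0 = DMSO median and -100 = no signal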
# * = called active by the depositor; i = inactive; · = no result given; & = joins results of further samples. A portion of the library. The share of hits here may be higher or lower than overall.
# Screens in order – Beta cell apopt, rRNA inh HTS, rRNA inh HTS OD600, rRNA inh HTS RFP, T cruzi inh, FGF22 binding, Ecoli growth, A1 inh, MLL AF4-AF9 inh, UCH37 inh
> O=C1CN(c2ccccc2Cl)C(=O)CN1c1ccccc1Cl
  -2.3, ·, ·, ·, -9.8, ·, 0.736, 0.7, ·, 3.7
> O=C(N[C@H]1C/C=C\C[C@@H](CC(=O)N(CCO)Cc2ccccc2)C(=O)N[C@H](Cc2c[nH]c3ccccc23)COC1=O)OCC1c2ccccc2-c2ccccc21
  1.3, 9.6, 5.6, -5.6, ·, i, ·, -2.0, 4.2, 1.0
> O=C1CC(c2ccccc2)CN1C(=O)c1cncc(Br)c1 (centres undefined)
  -0.6, 14.2, 8.4, 5.3, -1.0, i, 0.705, -0.3, 2.9, 1.1
> CC(C)NC(=S)N/N=C/c1ccc(N2CCOCC2)cc1
  -1.3, -0.9, -6.9, -1.5, 5.2, i, ·, -0.5, -0.5, ·
> N#Cc1ccc(CSc2nnc(NC(=O)CN3C(=O)C4CC=CCC4C3=O)s2)cc1 (centres undefined)
  2.8, ·, ·, ·, -6.5, ·, 0.761, 1.1, ·, 4.8
> CN(/N=C/c1ccncc1)C1=NCCN1
  -5.7, 14.2, 7.3, 1.2, 2.6, i, ·, 0.8, 2.0, ·
> O=C(Nc1ccccn1)N1CCOCC1
  3.7, ·, ·, ·, -2.5, ·, 0.736, -0.3, ·, 3.7
> CCCNC(=O)NCCC12CC3CC(CC(C3)C1)C2
  -5.2, -1.4, -12.1, -2.5, 35.5, i, 0.708, 0.3, -5.2, 5.5
> Cc1ccc2nc(NC(=O)CS(=O)(=O)Cc3ccccc3)sc2c1
  2.1, 3.3, -5.9, -3.9, 0.0, i, 0.671, -0.8, -30.2, 4.6
> O=C(CSc1n[nH]c(-c2cccnc2)n1)Nc1ccccc1C(F)(F)F
  -3.7, -2.5, -4.6, -0.3, -21.6, i, 0.668, -1.4, -3.5, 5.2
> CCOC(=O)c1cc([N+](=O)[O-])sc1N
  0.0, 5.5, 8.7, 8.2, -6.1, i, 0.7, 0.3, 1.9, -0.6
> CCOC(=O)c1c(NC(=O)CSc2ncccn2)sc2c1CC(C)(C)NC2(C)C
  -7.2, 0.6, -3.5, -2.4, 31.5, i, 0.739, -0.8, 2.9, 3.6
> CN(C(=O)c1ccc(S(=O)(=O)N2CCCC2)cc1)C1CCS(=O)(=O)C1 (centres undefined)
  -3.1, 8.0, 5.8, -0.9, -7.8, i, 0.689, -0.1, -1.0, 3.0
> COc1ccc(NC(C)=O)cc1NC(=O)CN1CCN(C2c3ccccc3-c3ccccc32)CC1
  8.8, ·, ·, ·, 20.8, ·, 0.733, 0.0, ·, 6.4
> CCCOc1ccc(-c2c(C(=O)N/N=C/c3ccc(OCC)cc3)nnn2-c2nonc2N)cc1
  -0.6, -11.2, 8.6, -0.4, 7.6, i, ·, 0.7, 4.4, ·
> O=C(Nc1ccc2c(c1)CCC2)c1cc(=O)[nH]c2ccccc12
  -1.9, 7.0, 7.2, -2.8, -3.6, i, 0.66, -0.6, 4.6, 0.8
> COc1cc(NC(=O)c2[nH]cnc2C(N)=O)cc(C(=O)Nc2cccc(C(F)(F)F)c2)c1
  114.4*, ·, ·, ·, ·, ·, 0.648, 2.6, ·, 3.4
> CCCn1c(N)c(C(=O)CSc2nnc3ccccn23)c(=O)[nH]c1=O
  -5.4, 6.6, 12.2, 0.0, ·, i, 0.728, 0.6, -0.8, 0.4
> COc1ccc(C(=O)Nc2cc(C(=O)NCCc3ccccc3)ccc2Cl)cc1
  5.3, -17.2, -10.6, 1.9, 23.9, i, 0.696, -0.6, 2.0, 1.2
> Cc1ccc(S(=O)(=O)N2CCOCC2)cc1C(=O)NCc1ccco1
  -1.9, ·, ·, ·, -1.9, ·, 0.683, -1.4, ·, 4.0
> COc1ccc(OC)c(C(=O)CSc2nnc(-c3cccs3)o2)c1
  4.0, -3.3, -2.0, -1.2, 17.2, i, 0.701, 0.1, -51.0, -59.8
> O=C1c2c(O)cc(O)cc2O[C@@]12c1c(cc(O)c3c1O[C@H](c1ccc(O)cc1)[C@@H](O)C3)O[C@@H]2c1ccc(O)cc1
  -1.3, 4.4, 12.6, -6.7, -11.3, i, ·, 1.1, ·, 2.5
> CCCCN1C(=O)N(CCc2ccc(F)cc2)S(=O)(=O)c2cc(C(F)(F)F)ccc21
  ·, 13.1, 16.6, -1.2, ·, i, 0.743, ·, 0.1, 1.0
> O=S(=O)(NC1CC1)c1ccc(F)c(F)c1
  -0.2, 6.0, 3.1, 0.4, -9.7, i, ·, -1.1, -0.5, ·
> COc1cccc(C(=O)Nc2ccc3[nH]c(=O)[nH]c3c2)c1OC
  -0.7, 8.1, 5.8, 0.1, -0.1, i, 0.686, 0.2, -2.1, -2.2
> CCOC(=O)CC1C(=O)NCCN1Cc1cccc(OC)c1 (centres undefined)
  -14.2, 6.5, 14.3, 2.3, -4.9, i, 0.726, -0.8, -4.8, 5.8
> CCOc1ccc(S(=O)(=O)NCCC(=O)Nc2nnc(C)s2)cc1
  -0.1, 2.0, 5.8, 1.0, 3.4, i, 0.655, 0.6, 1.4, -1.4
> COc1cc(CCCN2C(=S)NC[C@@H]2CC2CCCCC2)cc(OC)c1OC
  -6.4, -29.7, -49.0, -6.3, 10.1, i, ·, -0.2, 3.8, 3.9
> O=C(NNC(=S)Nc1cccc2ccccc12)c1cccc(Br)c1
  -2.9, ·, ·, ·, -3.8, ·, 0.645, 0.2, ·, 5.7
> O=C(Nc1ccc(O)cc1)c1ccc2c(c1)C(=O)N(Cc1ccco1)C2=O
  -9.0, -0.5, 2.5, 2.9, -9.1, i, 0.67, -0.4, 4.6, 3.5

# Next part; it opens with the 3 that closed the last part.
# Screens in order – Beta cell apopt, rRNA inh HTS, rRNA inh HTS OD600, rRNA inh HTS RFP, T cruzi inh, FGF22 binding, Ecoli growth, A1 inh, MLL AF4-AF9 inh, UCH37 inh
> COc1cc(CCCN2C(=S)NC[C@@H]2CC2CCCCC2)cc(OC)c1OC
  -6.4, -29.7, -49.0, -6.3, 10.1, i, ·, -0.2, 3.8, 3.9
> O=C(NNC(=S)Nc1cccc2ccccc12)c1cccc(Br)c1
  -2.9, ·, ·, ·, -3.8, ·, 0.645, 0.2, ·, 5.7
> O=C(Nc1ccc(O)cc1)c1ccc2c(c1)C(=O)N(Cc1ccco1)C2=O
  -9.0, -0.5, 2.5, 2.9, -9.1, i, 0.67, -0.4, 4.6, 3.5
> O=C(Nc1ccc(CN2CCOCC2)cc1)c1ccc(F)cc1
  -6.3, 4.5, 11.6, 0.0, -6.5, i, 0.648, -0.5, -0.5, 2.0
> COc1ccccc1OCc1nc2ccccc2[nH]1
  ·, ·, ·, ·, -3.1, ·, 0.644, -6.6, ·, 3.0
> O=C(c1cccs1)N1CCC(N2CCN(c3ccccc3)CC2)CC1
  3.6, ·, ·, ·, -34.6, ·, 0.706, -0.5, ·, -2.0
> CCNC(=S)NNC(=O)c1nn(C)c(C)c1Cl
  -1.6, ·, ·, ·, -2.0, ·, 0.639, -0.1, -2.1, 3.9
> Cc1cccc(CN2C(=O)c3ccccc3Sc3ccc(C(=O)NCCCN4CCOCC4)cc32)c1
  -0.4, 6.9, -7.6, 24.2, 27.7, i, 0.682, -0.1, 2.0, 2.3
> Cc1ccc2nc(SCc3cn4cccnc4n3)[nH]c2c1
  -0.1, ·, ·, ·, 9.2, ·, 0.627, -0.6, ·, 0.2
> Cn1c(=O)[nH]c(=O)c2c1nc(N1CCN(c3ccccc3)CC1)n2CCSc1ncccn1
  -6.9, 1.4, 3.2, -2.7, -1.1, i, 0.76, ·, -5.0, 3.8
> CN(CC(=O)Nc1cccc(F)c1)CC(=O)Nc1cccc([N+](=O)[O-])c1
  0.8, -6.0, -0.3, 0.5, 2.0, i, 0.692, 1.0, 0.7, -2.0
> COc1ccccc1N1CCN(S(=O)(=O)c2c(C(=O)N3CCOCC3)c(C)n(C)c2C)CC1
  1.8, 6.2, -0.6, 0.9, -12.8, i, 0.659, -0.4, -2.3, 2.7
> O=C(O)COc1ccccc1/C=N/NC(=O)c1cc2ccccc2cc1O
  1.8, 15.8, -6.3, -3.7, -2.7, i, ·, -1.1, 12.5, ·
> CC(C)CC(=O)N1CCN(S(=O)(=O)c2ccc(C3CCCCC3)cc2)CC1
  37.8, ·, ·, ·, ·, i, 0.684, -0.6, -3.4, 2.9
> Cc1ccsc1CN(C)C(=O)C1CCC(=O)N(CCc2cccc(F)c2)C1 (centres undefined)
  -5.2, -4.5, -2.4, -0.4, 4.6, i, 0.682, -1.4, -4.1, 4.9
> CCOC(=O)c1cc2sccc2n1CC(=O)OC
  -5.0, ·, ·, ·, 0.5, ·, 0.667, 0.7, ·, 4.4
> CN1CCN(C(=O)c2ccc(COc3ccc(Cl)cc3Cl)cc2)CC1
  -7.1, ·, ·, ·, 15.5, ·, 0.704, 0.0, ·, 5.6
> N#Cc1c(-c2c(Cl)cccc2Cl)noc1/C=C/Nc1ccc(C(=O)O)cc1
  -10.0, -7.7, -2.3, 7.0, 0.1, i, 0.676, -0.1, -3.1, -4.0

# Single records, from the list above.
# Cc1ccc2nc(SCc3cn4cccnc4n3)[nH]c2c1 is listed with Beta cell apopt = -0.1; rRNA inh HTS = ·; rRNA inh HTS OD600 = ·; rRNA inh HTS RFP = ·; T cruzi inh = 9.2; FGF22 binding = ·; Ecoli growth = 0.627; A1 inh = -0.6; MLL AF4-AF9 inh = ·; UCH37 inh = 0.2
# Cc1ccsc1CN(C)C(=O)C1CCC(=O)N(CCc2cccc(F)c2)C1 (centres undefined) is listed with Beta cell apopt = -5.2; rRNA inh HTS = -4.5; rRNA inh HTS OD600 = -2.4; rRNA inh HTS RFP = -0.4; T cruzi inh = 4.6; FGF22 binding = i; Ecoli growth = 0.682; A1 inh = -1.4; MLL AF4-AF9 inh = -4.1; UCH37 inh = 4.9

# Next structures.
SMILES	Beta cell apopt	rRNA inh HTS	rRNA inh HTS OD600	rRNA inh HTS RFP	T cruzi inh	FGF22 binding	Ecoli growth	A1 inh	MLL AF4-AF9 inh	UCH37 inh
CC(C)(C)[C@@H]1C=C(C(=O)N2CCN(Cc3ccccc3)CC2)O[C@H](OCCCCO)C1	-4.2	7.7	11.3	-2.3	-6.0	i	·	-0.2	-18.3&-3.8	0.5
Cn1c(=O)c2cc(S(=O)(=O)NC(C(=O)NCc3ccccn3)c3ccccc3)ccc2n(C)c1=O (centres undefined)	-2.3	2.8	7.4	0.4	-4.6	i	0.714	0.1	-11.0	2.8
COCCNc1ccc(S(=O)(=O)N2CCCC2)cc1[N+](=O)[O-]	-4.5	7.2	4.5	1.4	-8.8	i	0.735	-0.6	-2.2	3.0
Cc1cc(C)n(-c2ccnc3cc(Cl)ccc23)n1	-2.8	10.6	3.3	2.7	-0.8	i	0.673	0.8	-1.3	0.9
O=C(COC(=O)C1=COCCO1)Nc1ccccc1OC(F)F	-3.8	1.7	3.9	0.2	-4.2	i	0.697	-0.8	-1.5	-0.1
